HIV Env fusion: HIV envelope-mediated fusion inhibition; HeLa-JRFL Env/CEM21 cell fusion, luciferase; inhibition, % at 12.3 µM; actives 1.1% (n = 360,000); AID 651610;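 active means mean replicate inhibition score of at least 50 and every replicate individually at or above 50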;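 further: 0% = plate neutral controls and 100% = maraviroc near 300 nM; one replicate is shown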
Yeast UUG start: modulators of start codon recognition fidelity in yeast. actives 0.13% (n = 350,000). S. cerevisiae UUG-firefly luciferase reporter, luminescence/redox ratio. AID 602363. activity score, % at 18.7 µM;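 active means replicate mean at a twofold rise or more, about +100% in these data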;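 further: firefly luciferase made from a UUG start codon reports start codon fidelity; reporter light over untreated wells divided by growth signal over untreated wells; some hits fall short of that in this replicate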
Active calls of the source: *; [ ] = another dose, or the depositor's remark. These rows are one share of the data (hit frequency here may not be typical).

The opening two compounds, to show the layout:
Structure	HIV Env fusion	Yeast UUG start
COc1ccc(S(=O)(=O)N(C)C[C@@H]2Oc3ccc(N(C)C)cc3CC(=O)N([C@H](C)CO)C[C@@H]2C)cc1	16[16.7 µM]	13
Cc1ccc(S(=O)(=O)Nc2cccc3c2O[C@H](CN(C)Cc2ccc(Oc4ccccc4)cc2)[C@H](C)CN([C@H](C)CO)C3=O)cc1	32[16.7 µM]	0

All compounds of this part (from the top)
Structure	HIV Env fusion	Yeast UUG start
COc1ccc(S(=O)(=O)N(C)C[C@@H]2Oc3ccc(N(C)C)cc3CC(=O)N([C@H](C)CO)C[C@@H]2C)cc1	16[16.7 µM]	13
Cc1ccc(S(=O)(=O)Nc2cccc3c2O[C@H](CN(C)Cc2ccc(Oc4ccccc4)cc2)[C@H](C)CN([C@H](C)CO)C3=O)cc1	32[16.7 µM]	0
C[C@H](CO)N1C[C@H](C)[C@@H](CN(C)C(=O)C2CCCCC2)OCCCC[C@H](C)Oc2ccc(NC(=O)Cc3ccccc3)cc2C1=O	-69[16.7 µM]	5
COc1ccc(NC(=O)Nc2ccc3c(c2)C(=O)N([C@@H](C)CO)C[C@@H](C)[C@H](CN(C)C(=O)CCC(F)(F)F)OCCCC[C@H](C)O3)cc1	8[16.7 µM]	1
COc1ccc(CNC(=O)C[C@@H]2C=C[C@H](NC(=O)c3ccc4c(c3)OCO4)[C@H](CO)O2)cc1	8[16.7 µM]	-10
C[C@@H]1CN([C@@H](C)CO)S(=O)(=O)c2ccc(C#Cc3cccnc3)cc2O[C@@H]1CN(C)C(=O)Nc1ccc2c(c1)OCO2	-12[16.7 µM]	1
O=C(C[C@H]1CC[C@@H](NC(=O)Nc2cc(F)ccc2F)[C@H](CO)O1)NCc1ccncn1	-9[16.7 µM]	-16
C[C@H](CO)N1C[C@H](C)[C@@H](CN(C)C(=O)Nc2ccccc2)Oc2ncc(C3=CCCCC3)cc2C1=O	-18[16.7 µM]	93
Cc1ccc(S(=O)(=O)Nc2ccc3c(c2)C(=O)N([C@H](C)CO)C[C@@H](C)[C@H](CN(C)Cc2ccccc2)OCCCC[C@H](C)O3)cc1	10[16.7 µM]	10
COc1ccc(S(=O)(=O)N(C)C[C@H]2OCCCC[C@H](C)Oc3ccc(NS(=O)(=O)c4c(C)noc4C)cc3C(=O)N([C@H](C)CO)C[C@@H]2C)cc1	-60[16.7 µM]	17
C[C@H](CO)N1C[C@H](C)[C@@H](CN(C)C(=O)Nc2ccc(F)cc2)OCCCC[C@H](C)Oc2ccc(NC(=O)c3ccccc3)cc2C1=O	-140[16.7 µM]	-2
C[C@H](CO)N1C[C@H](C)[C@@H](CN(C)Cc2ccccc2)Oc2cc(C#CCN(C)C)ccc2S1(=O)=O	-19[16.7 µM]	4

Structure	HIV Env fusion	Yeast UUG start
C[C@H]1CN([C@@H](C)CO)C(=O)c2cccc(NC(=O)c3ccncc3)c2O[C@@H]1CN(C)C(=O)NC1CCCCC1	12[16.7 µM]	-10
CCCN(C)C[C@H]1OCCCC[C@@H](C)Oc2ccc(NC(=O)C3CCCCC3)cc2C(=O)N([C@H](C)CO)C[C@H]1C	-23[16.7 µM]	30
O=C(C[C@@H]1C[C@@H]2c3cc(NC(=O)C4CCC4)ccc3O[C@@H]2[C@H](CO)O1)NCc1ccccc1	0[16.7 µM]	-8
Cc1noc(C)c1S(=O)(=O)N(C)C[C@@H]1OCCCC[C@H](C)Oc2ccc(NC(=O)Nc3ccccc3)cc2C(=O)N([C@@H](C)CO)C[C@H]1C	30[16.7 µM]	-15
C[C@@H]1CN([C@H](C)CO)C(=O)c2cc(NC(=O)CCC(F)(F)F)ccc2O[C@@H](C)CCCCO[C@@H]1CN(C)S(=O)(=O)c1cccs1	-15[16.7 µM]	20
COc1ccc(NC(=O)N(C)C[C@H]2OCCCC[C@@H](C)Oc3ccc(NC(=O)c4ccccc4)cc3C(=O)N([C@H](C)CO)C[C@H]2C)cc1	27[16.7 µM]	36
COc1ccccc1-c1ccc2c(c1)O[C@@H](CN(C)S(=O)(=O)c1ccc(C)cc1)[C@H](C)CN([C@@H](C)CO)S2(=O)=O	28[16.7 µM]	-9
CCc1csc(N2[C@H](C#N)[C@H](c3ccc(-c4cccc(F)c4)cc3)[C@@H]2CO)n1	30[16.7 µM]	-14
CC(C)NC(=O)Nc1ccc2c(c1)C(=O)N([C@@H](C)CO)C[C@H](C)[C@H](CN(C)Cc1ccc(Cl)c(Cl)c1)OCCCC[C@@H](C)O2	2[16.7 µM]	24
CC(=O)N(C)C[C@@H]1Oc2cc(-c3cccc(C#N)c3)ccc2S(=O)(=O)N([C@H](C)CO)C[C@@H]1C	-10[16.7 µM]	9
CO[C@H]1CN(C)C(=O)c2cc(NC(=O)C3CC3)ccc2OC[C@H](C)N(C(=O)c2ccncc2)C[C@@H]1C	-14[16.7 µM]	6
O=C(C[C@@H]1C=C[C@H](NC(=O)CC2CC2)[C@H](CO)O1)NCc1ccc(-c2ccccc2)cc1	12[16.7 µM]	8

Structure	HIV Env fusion	Yeast UUG start
C[C@H]1CN([C@@H](C)CO)C(=O)c2cc(C3=CCCC3)cnc2O[C@@H]1CN(C)Cc1ccc(C(=O)O)cc1	-18[16.7 µM]	-4
Cc1noc(C)c1NC(=O)NCC[C@H]1CC[C@H](NC(=O)c2ccncc2)[C@H](CO)O1	1[16.7 µM]	5
CN(C)C(=O)C[C@@H]1C=C[C@@H](NC(=O)NC2CCCCC2)[C@@H](CO)O1	-8[16.7 µM]	-14
Cc1noc(C)c1S(=O)(=O)Nc1ccc2c(c1)C(=O)N([C@@H](C)CO)C[C@H](C)[C@H](CN(C)C(=O)c1ccncc1)OCCCC[C@H](C)O2	17[16.7 µM]	6
C[C@H]1CN([C@@H](C)CO)C(=O)Cc2cc(NC(=O)Nc3ccc4c(c3)OCO4)ccc2O[C@@H]1CN(C)Cc1ccc(C(F)(F)F)cc1	13[16.7 µM]	4
C[C@@H]1CN([C@H](C)CO)C(=O)c2cc(NC(=O)Nc3cccc4ccccc34)ccc2O[C@@H]1CN(C)Cc1ccc(C(F)(F)F)cc1	74*[16.7 µM]	15
O=C(Nc1ccc(F)cc1)N[C@H]1CC[C@@H](CCn2cc(-c3ccccc3F)nn2)O[C@H]1CO	15[16.7 µM]	2
CNC[C@@H]1Oc2ncc(-c3ccc(OC)cc3)cc2C(=O)N([C@@H](C)CO)C[C@@H]1C	-1[16.7 µM]	27
O=C(NCCN1CCOCC1)[C@]1(Cc2ccccc2)N=C(c2ccc(OCCCO)cc2)O[C@@H]1c1ccccc1	2[16.7 µM]	-1
Cc1ccc(S(=O)(=O)N(C)C[C@H]2Oc3c(NS(=O)(=O)c4ccc(F)cc4)cccc3C(=O)N([C@H](C)CO)C[C@H]2C)cc1	4[16.7 µM]	-5
C[C@@H]1CCCCO[C@H](CN(C)S(=O)(=O)c2ccc(Cl)cc2)[C@@H](C)CN([C@@H](C)CO)C(=O)c2cc(NC(=O)C3CCCCC3)ccc2O1	-5[16.7 µM]	-6
C[C@@H]1CN([C@@H](C)CO)C(=O)c2cccc(NC(=O)Nc3cccc4ccccc34)c2O[C@H]1CN(C)CC1CC1	14[16.7 µM]	-4

Structure	HIV Env fusion	Yeast UUG start
C[C@H]1CN([C@@H](C)CO)C(=O)Cc2cc(NC(=O)Cc3cn(C)c4ccccc34)ccc2O[C@H]1CN(C)C(=O)Nc1cccc2ccccc12	-7[16.7 µM]	-3
O=C(N[C@H]1CC[C@H](CC(=O)N2CCOCC2)O[C@@H]1CO)c1cccc(F)c1	17[16.7 µM]	1
COc1ccc(NC(=O)Nc2ccc3c(c2)C(=O)N([C@@H](C)CO)C[C@@H](C)[C@@H](CN(C)Cc2ccccc2)OCCCC[C@@H](C)O3)cc1	2[16.7 µM]	39
C[C@H]1CN([C@@H](C)CO)C(=O)Cc2cc(NC(=O)CCCCCC(=O)Nc3ccccc3N)ccc2O[C@@H]1CN(C)S(C)(=O)=O	-3[16.7 µM]	-1
Cc1noc(C)c1S(=O)(=O)N(C)C[C@@H]1OCCCC[C@@H](C)Oc2ccc(NS(=O)(=O)c3ccc(F)cc3)cc2C(=O)N([C@@H](C)CO)C[C@@H]1C	-20[16.7 µM]	11
CCCNC(=O)C[C@@H]1CC[C@H]2[C@@H](COc3ccc(NC(=O)c4ccc(OC)cc4)cc3C(=O)N2C)O1	1[16.7 µM]	0
CN1CCN(C(=O)C[C@@H]2C[C@H]3c4cc(NC(=O)NC5CCCC5)ccc4O[C@H]3[C@@H](CO)O2)CC1	6[16.7 µM]	-17
C[C@@H]1CCCCO[C@H](CN(C)Cc2ccc(C(F)(F)F)cc2)[C@@H](C)CN([C@H](C)CO)C(=O)c2cc(NC(=O)c3ccccc3)ccc2O1	9[16.7 µM]	5
O=C(C[C@H]1C=C[C@@H](NC(=O)C2CC2)[C@@H](CO)O1)NCCCN1CCOCC1	3[16.7 µM]	-3
CC(=O)N(C)C[C@@H]1Oc2ncc(C#CC(C)(C)O)cc2C(=O)N([C@@H](C)CO)C[C@@H]1C	-10[16.7 µM]	-3
C[C@H]1CN([C@@H](C)CO)C(=O)Cc2cc(NC(=O)Nc3ccc(C(F)(F)F)cc3)ccc2O[C@@H]1CN(C)Cc1ccc(Cl)c(Cl)c1	-13[16.7 µM]	-12
COc1ccc(S(=O)(=O)N(C)C[C@@H]2OCCCC[C@H](C)Oc3ccc(NC(=O)Nc4ccc(F)cc4)cc3C(=O)N([C@@H](C)CO)C[C@@H]2C)cc1	-30[16.7 µM]	0

Sorted by the number under Yeast UUG start (highest first): four from the list above.
Structure | Yeast UUG start
COc1ccc(NC(=O)Nc2ccc3c(c2)C(=O)N([C@@H](C)CO)C[C@@H](C)[C@@H](CN(C)Cc2ccccc2)OCCCC[C@@H](C)O3)cc1 | 39
CCCNC(=O)C[C@@H]1CC[C@H]2[C@@H](COc3ccc(NC(=O)c4ccc(OC)cc4)cc3C(=O)N2C)O1 | 0
CC(=O)N(C)C[C@@H]1Oc2ncc(C#CC(C)(C)O)cc2C(=O)N([C@@H](C)CO)C[C@@H]1C | -3
CN1CCN(C(=O)C[C@@H]2C[C@H]3c4cc(NC(=O)NC5CCCC5)ccc4O[C@H]3[C@@H](CO)O2)CC1 | -17

Continuation:
Structure	HIV Env fusion	Yeast UUG start
C/C=C/c1cnc2c(c1)C(=O)N([C@H](C)CO)C[C@@H](C)[C@H](CN(C)C(=O)C1CCCCC1)O2	-6[16.7 µM]	0
C[C@H]1CN([C@@H](C)CO)C(=O)Cc2cc(NC(=O)Nc3ccc4c(c3)OCO4)ccc2O[C@H]1CN(C)C(=O)Nc1ccccc1	-10[16.7 µM]	11
C[C@H]1CN([C@@H](C)CO)S(=O)(=O)c2ccc(-c3ccncc3)cc2O[C@@H]1CN(C)C(=O)CC1CC1	3[16.7 µM]	-7
CC(C)NC(=O)N(C)C[C@H]1OCCCC[C@@H](C)Oc2ccc(NC(=O)Nc3ccc(F)cc3)cc2C(=O)N([C@@H](C)CO)C[C@H]1C	-1[16.7 µM]	1
CCCN(C)C[C@H]1Oc2cc(C#CC3(O)CCCC3)ccc2S(=O)(=O)N([C@H](C)CO)C[C@H]1C	-5[16.7 µM]	4
C[C@H](CO)N1C[C@H](C)[C@@H](CN(C)Cc2ccc(C(F)(F)F)cc2)Oc2ccc(NS(=O)(=O)c3ccc(Cl)cc3)cc2CC1=O	69*[16.7 µM]	14
Cc1cc(C(=O)Nc2ccc3c(c2)C(=O)N(C)[C@@H]2CC[C@@H](CC(=O)N[C@H](C)c4ccccc4)O[C@@H]2CO3)no1	14[16.7 µM]	9
C[C@H](CO)N1C[C@H](C)[C@H](CN(C)C(=O)Nc2ccc3c(c2)OCO3)Oc2c(NS(=O)(=O)c3ccccc3)cccc2C1=O	-27[16.7 µM]	11
COc1cccc(S(=O)(=O)N[C@H]2C=C[C@H](CC(=O)NCc3ccccc3)O[C@@H]2CO)c1	4[16.7 µM]	-3
O=C(Nc1ccc2c(c1)[C@H]1C[C@@H](CC(=O)N3CCCCC3)O[C@H](CO)[C@H]1O2)c1ccc2c(c1)OCO2	9[16.7 µM]	8
N#C[C@H]1[C@@H](c2ccc(-c3ccncc3)cc2)[C@@H](CO)N1C(=O)C1CCC1	4[16.7 µM]	-14
O=C(C[C@H]1CC[C@@H](NC(=O)C2CCC2)[C@@H](CO)O1)NC1CCC1	-7[16.7 µM]	-8

Structure	HIV Env fusion	Yeast UUG start
Cc1noc(C)c1NC(=O)Nc1ccc2c(c1)CC(=O)N([C@@H](C)CO)C[C@H](C)[C@@H](CN(C)C(=O)NC1CCCCC1)O2	-14[16.7 µM]	-9
CNC[C@H]1Oc2ccc(NC(=O)CCN3CCOCC3)cc2C(=O)N([C@H](C)CO)C[C@@H]1C	-3[16.7 µM]	-7
COc1cccc(NC(=O)N(C)C[C@@H]2Oc3cc(-c4ccccc4OC)ccc3S(=O)(=O)N([C@@H](C)CO)C[C@@H]2C)c1	5[16.7 µM]	-1
CO[C@@H]1CN(C)C(=O)c2cc(NC(=O)Nc3cc(F)ccc3F)ccc2OC[C@@H](C)N(C(=O)c2ccccn2)C[C@H]1C	3[16.7 µM]	14
O=C(C[C@@H]1CC[C@@H]2[C@H](COC[C@@H](O)CN2C(=O)c2cnccn2)O1)NCc1ccc(F)cc1	17[16.7 µM]	-9

Whole records, looked up by structure:
Entry for Cc1noc(C)c1NC(=O)Nc1ccc2c(c1)CC(=O)N([C@@H](C)CO)C[C@H](C)[C@@H](CN(C)C(=O)NC1CCCCC1)O2 : HIV Env fusion: -14[16.7 µM]; Yeast UUG start: -9
Entry for CNC[C@H]1Oc2ccc(NC(=O)CCN3CCOCC3)cc2C(=O)N([C@H](C)CO)C[C@@H]1C : HIV Env fusion: -3[16.7 µM]; Yeast UUG start: -7

Screening data (PubChem BioAssay)
